Rango release inh: inhibition of RanGTP-driven Rango-importin beta dissociation; O95149+P62826; Biochemical FRET Rango-importin beta, RanGTP-induced dissociation; Potency, µM (series often up to 46.1 µM), for inactives: at the highest dose activity change, negative = inhibition; 0.071% of 340,000 active; AID 540253; active means falling FRET ratio curve, often poorly fitted, with flat reads before Ran was added; inconclusive means other falling curves, or compound fluorescence or quenching; inactive means flat or rising ratio curve;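 further: potency means the concentration at half of the fitted maximal effect; % of control where 0% means no effect; nearly all actives have a fitted effect of over 45% in size; -100% = wells without RanGTP and RCC1; the record marks most hits as doubtful in a second field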
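FRET read at 45 min, room temperature: inhibitors block the CFP/YFP signal rise when RanGTP (0.6 uM Ran, 2 mM GTP, 0.2 uM RCC1) frees Rango (0.1 uM) from importin beta (0.25 uM). Pre-read after 5 min compound exposure flags interference.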
GLA inh pH 4.5: blocks human alpha-galactosidase A at pH 4.5 | P06280 | activity change, negative = inhibition, % at 105 µM | 230,000 tested, under 10 active | purified enzyme, 4-MU-alpha-Gal fluorescence, pH 4.5; inconclusive = small, poorly fitted or top-dose-only inhibition, or a rising curve; inactive = flat fitted curve, though single readings scatter; no compound was filed as active;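 further: 0% = full activity with enzyme and -100% = basal without enzyme; dose as in the result columns while the protocol names 77 µM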
Rango-impB inh: inhibitors of Rango-importin beta complex formation; 0.031% of 340,000 active; Potency, µM (top dose mostly 92.2 µM), for the others: at the top dose inhibition of complex formation; Rango CFP/YFP FRET sensor + importin beta, 45 min; AID 540263; Q14974; active = rising FRET ratio curve, often small or poorly fitted; inconclusive = mostly compound fluorescence or quenching in the first reads; inactive = flat curves in all reads;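 further: potency means the concentration at half of the fitted maximal effect; 0% = DMSO wells and 100% = buffer wells lacking importin beta; nearly all actives have a fitted effect of over 15% in size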
Target sequence (Q14974 whole entry, looked up): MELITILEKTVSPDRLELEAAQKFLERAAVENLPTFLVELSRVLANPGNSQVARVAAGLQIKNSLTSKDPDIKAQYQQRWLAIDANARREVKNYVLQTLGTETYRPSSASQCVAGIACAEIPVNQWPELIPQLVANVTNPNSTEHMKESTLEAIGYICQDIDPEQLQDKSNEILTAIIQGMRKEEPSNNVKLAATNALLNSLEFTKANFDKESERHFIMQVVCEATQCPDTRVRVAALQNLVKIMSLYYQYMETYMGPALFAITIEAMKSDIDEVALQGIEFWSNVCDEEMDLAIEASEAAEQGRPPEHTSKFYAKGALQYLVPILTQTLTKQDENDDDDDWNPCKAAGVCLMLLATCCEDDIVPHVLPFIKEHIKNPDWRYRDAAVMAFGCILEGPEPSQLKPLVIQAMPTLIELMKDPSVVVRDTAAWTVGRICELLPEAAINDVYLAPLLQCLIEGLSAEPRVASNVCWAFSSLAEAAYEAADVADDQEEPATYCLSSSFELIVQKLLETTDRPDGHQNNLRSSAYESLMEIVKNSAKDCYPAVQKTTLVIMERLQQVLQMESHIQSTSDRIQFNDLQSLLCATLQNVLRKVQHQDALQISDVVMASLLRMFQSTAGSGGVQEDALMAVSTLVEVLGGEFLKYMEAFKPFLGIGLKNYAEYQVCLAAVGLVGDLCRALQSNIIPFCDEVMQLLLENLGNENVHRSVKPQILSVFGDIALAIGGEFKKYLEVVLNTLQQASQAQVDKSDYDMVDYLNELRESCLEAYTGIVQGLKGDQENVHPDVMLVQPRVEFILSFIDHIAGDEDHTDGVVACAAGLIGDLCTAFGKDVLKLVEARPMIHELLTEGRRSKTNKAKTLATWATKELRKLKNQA
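Inhibition scored from the CFP 486 nm/YFP 530 nm FRET ratio 45 min after adding 0.125 microM importin beta to 50 nM Rango biosensor preincubated 5 min with compound (room temperature, PBS with DTT, Tween-20, BSA). No-importin wells as positive control.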
miR-21 FLuc: miR-21 reporter, rising signal; HeLa miR-21 FLuc reporter, luciferase, 48 h; Potency, µM (doses to about 38.3 µM), for inactives: at the top dose reporter change, positive = more light; 340,000 tested, under 10 active; AID 2288; active = well fitted rising curve with a large enough effect; inconclusive = small, poorly fitted or top-dose-only effect; inactive = no such curve, though single readings can be large or run the other way;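 further: % of control where 0% means no effect; miR-21 action dims this reporter so a rising signal means less miR-21 action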
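Luminescence from a firefly luciferase reporter carrying a miR-21 binding site downstream, stably expressed under a CMV promoter in HeLa cells that make miR-21 endogenously, reports miRNA modulation after 48 h compound exposure up to approximately 40uM final.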
Active calls of the source: *; ? = inconclusive; . = not tested or not shown; & = joins results of further samples. Some of the compounds tested; rates above refer to the full screens.

SMILES	Rango release inh	GLA inh pH 4.5	Rango-impB inh	miR-21 FLuc
O=C(NCc1ccco1)/C(=C\c1ccccc1)NC(=O)c1ccccc1	-3%	.	-0.7%	-1%
CCOc1ccc2nc(SCC(=O)N(C)C3CCS(=O)(=O)C3)[nH]c2c1 (centres undefined)	-9%	-1	1.0%	0%
COc1ccc2oc(=O)c(-c3nc4ccccc4o3)cc2c1	?	-8	?	-60%
Cc1ccc(OCc2cc(C(=O)N3CCC(C(O)C(C)C)CC3)no2)cc1C (centres undefined)	?	.	?	-29%
Cc1ccc(NS(=O)(=O)c2cc([N+](=O)[O-])ccc2NNC(=S)Nc2cccc(Cl)c2)c(C)c1	-20%	-8	2.7%	18%
COc1ccc(CNCCS(=O)(=O)NCc2ccccc2)cc1	-2%	.	3.2%	.
COc1ccc(CCNC(=S)NC2CCN(Cc3ccccc3)CC2)cc1OC	0%	5	-0.4%	-2%
CN(C)CC(C)(C)CNC(=O)CC1C(=O)NCCN1Cc1ccc(-c2ccccc2)cc1 (centres undefined)	3%	-5	-1.0%	2%
CN(C)S(=O)(=O)c1cccc(NC(=O)C2CCN(S(=O)(=O)c3cccs3)CC2)c1	9%	.	1.6%	.
COc1ccccc1CN1CC(C(=O)NCc2cc(C(C)C)no2)CCC1=O (centres undefined)	5%	.	-4.8%	-6%
Cc1c(NC(=O)CN2CCN(c3ccc(F)cc3)CC2)c(=O)n(-c2ccccc2)n1C	18%	8	0.9%	0%
CC(C)(C)c1ccc(C(=O)Nc2ccc(CC(=O)O)cc2)o1	28%	14	-0.8%	?
O=C(Cn1c(-c2ccccn2)nc2ccccc21)NCCN1CCOCC1	0%	-3	-1.0%	-2%
Cc1ccc2c(c1)c1cccc3c1n2CCN3CCC(N)=O	?	24	?	-68%
Cc1nc2sc(C(c3ccco3)N3CCc4ccccc4C3)c(O)n2n1 (centres undefined)	-19%	.	-0.4%	.
Cc1noc(C)c1COc1cccc(C(=O)N2CCc3ccccc32)c1	-17%	-11	1.0%	13%
O=C1/C(=C/c2ccccc2O)SC(=S)N1Cc1cccnc1	-10%	-5	3.4%	-5%
CCOC(=O)c1[nH]c(C)c(C(=O)OCCOc2cccc(C)c2)c1C	-3%	6	4.5%	-31%
Cc1ccc(S(=O)(=O)NC(=O)Nc2ncc3c(n2)CC(c2ccco2)CC3=O)cc1 (centres undefined)	10%	-3	-1.4%	-5%
O=c1cc(O)c2sc(Nc3cccc(C(F)(F)F)c3)nc2[nH]1	?	7	?	-4%
O=C(O)c1cccc(CN2C(=O)S/C(=C/c3ccccc3[N+](=O)[O-])C2=O)c1	-5%	2	?	10%
O=C(CNS(=O)(=O)c1ccc(Cl)c(C(F)(F)F)c1)NC1CCCCCC1	1%	.	-2.8%	.
O=C(OCC(=O)N1CCCC1)c1cccc(Br)c1	3%	.	-0.8%	-23%
Cc1cccc(NC(=O)Nc2cnccn2)c1C	6%	.	3.7%	1%
CSCCC(NC(=O)c1c(C)oc2c1CCCC2)C(=O)O (centres undefined)	4%	-3	-2.4%	0%
Cc1c(NC(=O)C23CC4CC(CC(C4)C2)C3)c(=O)n(-c2ccccc2)n1C	2%	.	2.3%	-5%
CCN(CC(=O)NC1CCCCCC1)S(=O)(=O)c1ccccc1	13%	9	-1.1%	-5%
O=C(CCNC(=O)c1ccc([N+](=O)[O-])cc1)Nc1cccc(S(=O)(=O)N2CCOCC2)c1	0%	.	0.5%	.
CCOC(=O)c1cnn(-c2nc3sc4c(c3c(=O)[nH]2)CCCC4)c1N	.	12	.	-2%
C=C(C)C1Cc2c(C)nn(-c3ccccc3)c2C1 (centres undefined)	19%	0	-5.5%	-6%
O=C(CCS(=O)(=O)c1ccc(Br)cc1)NCCc1ccc(Cl)cc1	-7%	.	3.3%	1%
O=C(NCC(F)(F)F)Nc1ccccn1	-6%	3	1.2%	-3%
COc1ccc(Nc2ccc(C(N)=O)cc2[N+](=O)[O-])cc1	13%	-6	-2.4%	-8%
CCC(=O)OCn1nnc2ccccc2c1=O	-7%	3	0.5%	1%
O=C(COC(=O)c1cccnc1Cl)c1ccc(Cl)s1	10%	.	0.2%	.
C#CCOCCOCCOCCNc1nc(N2CCN(C(=O)[C@H](CCCCN)n3cc([C@@H](N)CO)nn3)CC2)nc(N2CCN(C(=O)[C@H](Cc3ccc(O)cc3)n3cc([C@@H](N)CC(C)C)nn3)CC2)n1	-5%	-1	2.5%	-1%
Cn1c(SCc2ccccc2)nnc1-c1ccc(O)cc1	5%	.	5.2%	-41%
CCOc1cccc(C(=O)NC(=S)Nc2ccc(N3CCN(CC)CC3)cc2)c1	11%	4	-2.7%	-14%
CC1(C)CC(=O)C=C(c2ccc(Oc3ccccc3)cc2)C1	-11%	.	0.1%	.
O=c1[nH]cnc(O)c1C(c1cccc([N+](=O)[O-])c1)c1c(O)nc[nH]c1=O	-16%	3	-2.8%	-2%
O=C(C[C@H]1C[C@H](C(=O)N2CCCCC2)[C@@]2(CCc3ccccc3)c3[nH]c4ccc(Cl)cc4c3CCN2C1=O)NCCCn1ccnc1	5%	.	-0.2%	.
CSC1SCC2C(=O)N(C)C(C(C)C)C(=O)OCC(NC(=O)c3cnc4ccccc4n3)C(=O)NC(C)C(=O)N(C)C1C(=O)N(C)C(C(C)C)C(=O)OCC(NC(=O)c1cnc3ccccc3n1)C(=O)NC(C)C(=O)N2C (centres undefined)	-10%	.	-0.7%	.
COc1ccc(C(C)=O)cc1CSc1nnc(-c2ccncc2)o1	-13%	.	-3.2%	-5%
COc1ccc(CCC(=O)NNC(=S)NCc2ccc(F)cc2)cc1	-3%	9	-1.8%	-2%
COc1ccc(NC2=Nc3ccccc3N[C@@]23C[C@H]2CCCC(=O)N4CC[C@@H](C3)[C@@H]24)cc1	-21%	.	-1.2%	.
CCCNc1c(N)c(=O)c1=O	-20%	6	-0.9%	-3%
O=C(CCc1nnc(CCCCc2ccccc2)o1)N1CCCC(O)C1 (centres undefined)	7%	3	-0.7%	-13%
COC(=O)C1ON2OC(C(=O)OC)C(C(=O)OC)C2C1CC(C)=O (centres undefined)	-14%	-2	?	-3%
CCCC1=[N+](CC(=O)c2ccc(C)cc2)CCn2cccc21	3%	-1	?	-15%
Cc1ccc(-c2nnc(N)o2)cc1	2%	7	2.0%	-29%

Part of the list above in order of formula weight, falling.
SMILES	Rango release inh	GLA inh pH 4.5	Rango-impB inh	miR-21 FLuc
CSC1SCC2C(=O)N(C)C(C(C)C)C(=O)OCC(NC(=O)c3cnc4ccccc4n3)C(=O)NC(C)C(=O)N(C)C1C(=O)N(C)C(C(C)C)C(=O)OCC(NC(=O)c1cnc3ccccc3n1)C(=O)NC(C)C(=O)N2C (centres undefined)	-10%	.	-0.7%	.
C#CCOCCOCCOCCNc1nc(N2CCN(C(=O)[C@H](CCCCN)n3cc([C@@H](N)CO)nn3)CC2)nc(N2CCN(C(=O)[C@H](Cc3ccc(O)cc3)n3cc([C@@H](N)CC(C)C)nn3)CC2)n1	-5%	-1	2.5%	-1%
O=C(C[C@H]1C[C@H](C(=O)N2CCCCC2)[C@@]2(CCc3ccccc3)c3[nH]c4ccc(Cl)cc4c3CCN2C1=O)NCCCn1ccnc1	5%	.	-0.2%	.
CCOc1cccc(C(=O)NC(=S)Nc2ccc(N3CCN(CC)CC3)cc2)c1	11%	4	-2.7%	-14%
COc1ccc(CCC(=O)NNC(=S)NCc2ccc(F)cc2)cc1	-3%	9	-1.8%	-2%
O=C(CCc1nnc(CCCCc2ccccc2)o1)N1CCCC(O)C1 (centres undefined)	7%	3	-0.7%	-13%
COC(=O)C1ON2OC(C(=O)OC)C(C(=O)OC)C2C1CC(C)=O (centres undefined)	-14%	-2	?	-3%
COc1ccc(C(C)=O)cc1CSc1nnc(-c2ccncc2)o1	-13%	.	-3.2%	-5%
Cn1c(SCc2ccccc2)nnc1-c1ccc(O)cc1	5%	.	5.2%	-41%
CCCC1=[N+](CC(=O)c2ccc(C)cc2)CCn2cccc21	3%	-1	?	-15%
CC1(C)CC(=O)C=C(c2ccc(Oc3ccccc3)cc2)C1	-11%	.	0.1%	.
CCCNc1c(N)c(=O)c1=O	-20%	6	-0.9%	-3%

Continuation.
SMILES	Rango release inh	GLA inh pH 4.5	Rango-impB inh	miR-21 FLuc
COC(=O)c1ccc(Oc2cc(C)nc(SC)n2)cc1	4%	4	0.4%	13%
CCOC(=O)N1CCN(C(=O)/C(=C/c2cccc3ccccc23)NC(=O)c2ccc(OC)cc2)CC1	-17%	-11	-2.5%	-2%
CC(C)(C)NC(=O)C(c1ccncc1)N(C(=O)Cn1nnc(-c2ccc(F)cc2)n1)c1ccc(F)cc1 (centres undefined)	0%	-7	-2.3%	4%
Nc1nc(N)nc(-c2cc(Cl)ccc2Cl)n1	?	.	-6.7%	.
COc1cccc(NC(=O)COC(=O)c2c(C)nn(-c3ccccc3)c2C)c1	-15%	.	-1.2%	.
Cc1occc1C(=O)N/N=C/c1ccc(Cl)c([N+](=O)[O-])c1	-17%	-5	0.9%	-30%
O=C1CC(N(O)c2ccccc2)C(=O)N1c1cc(Cl)cc(Cl)c1 (centres undefined)	1%	0	-1.7%	-8%
Cc1ccc(NC(=S)N2CCN(S(=O)(=O)c3ccccc3)CC2)cc1C	10%	.	-1.5%	-3%
CC(=O)Nc1nnc(SCc2ccc(C(=O)Nc3ccccc3F)cc2)s1	-5%	-6	4.3%	-27%
O=C(COC(=O)c1ccccc1O)NCc1ccco1	24%	.	?	.
O=C(CCn1c(=O)c2cccn2c2ccccc21)Nc1ccc(F)cc1	-19%	.	-6.5%	12%&3%
O=C(CN1CCCCC1)Nc1nnc(-c2ccc([N+](=O)[O-])cc2)s1	-6%	-6	6.1%	-15%
COc1ccccc1NC(=O)c1cc2n(n1)C(C(F)(F)F)CC(c1ccc3c(c1)OCO3)N2 (centres undefined)	13%	-5	-2.8%	17%
Cc1nnc2ccc(-c3ccc(NC(=O)Cc4cccs4)cc3)nn12	-12%	0	-3.4%	18%
CCOC(=O)C1=C(O)/C(=C\c2ccc(OC)c(OC)c2)N=C1C	-6%	-1	0.1%	-7%
CN1CCN(c2ccc(NC(=O)c3cc([N+](=O)[O-])ccc3N3CCOCC3)cc2)CC1	-5%	.	0.7%	-2%
O=C(NCc1n[nH]c(=O)c2ccccc12)C1CC(=O)N(c2ccc(Cl)cc2)C1 (centres undefined)	1%	.	-0.5%	.
Cn1cc(CN2CCC(C(O)CCc3ccccc3)CC2)c(-c2ccccc2F)n1 (centres undefined)	13%	-2	2.8%	-5%
CCCN1C(=O)c2cc(C(=O)Nc3ccc(OC)cc3OC)ccc2C1Nc1ccc(OC)cc1OC (centres undefined)	-10%	-20	1.4%	11%
Cc1cc(C(F)(F)F)nn1C(=O)c1cccnc1Cl	0%	1	-1.4%	0%
CCN1CCN(C(=O)Cn2ncc3c([nH]c4ccc(C)cc43)c2=O)CC1	5%	.	2.2%	-1%
COc1ccc(S(=O)(=O)N2CCCCC2)cc1NC(=O)C1CCCO1 (centres undefined)	-5%	-1	0.4%	2%
COC(=O)c1[nH]c2ccc(Br)cc2c1NC(=O)Oc1ccccc1	0%	-17	1.0%	-44%
CN(C(=O)CSc1cc(C(=O)c2nccn2C)c2ccccc2n1)c1ccccc1	-9%	1	-1.5%	?
O=C(c1ccccc1)N1CCN(c2ccccc2)CC1	2%	.	1.3%	.
COc1ccnc(Nc2cccc(C)c2)c1C#N	1%	0	0.8%	-5%
CC(C)(C)N=C(NS(=O)(=O)c1cccs1)c1ccccc1	-3%	.	-0.9%	-4%
CN(C)CCN1CCc2ccccc21	10%	6	-0.4%	-10%
CCn1cc(Br)c(C(=O)Nc2sc3c(c2C(N)=O)CCCC3)n1	-9%	.	-0.2%	2%
O=CC(=O)c1ccccc1	-12%	.	0.1%	.
COCCNCC(=O)N1c2ccccc2Sc2ccccc21	4%	.	0.3%	-7%
Cc1ccc(C)c(C(=O)CSc2nc(N)cc(=O)[nH]2)c1	10%	.	-0.6%	-4%
Cc1cc(C)c2c(n1)nn1c(NCCCn3ccnc3)cc(C)nc21	.	?	.	1%
C=CCNC(=O)c1ccccc1S(=O)c1ccccc1C#N (centres undefined)	-4%	0	-0.1%	-1%
Cc1c(CCO)sc[n+]1CC(=O)OC12CC3CC(CC(C3)C1)C2	-10%	-1	-0.9%	-5%
Cn1c(N2CCOCC2)c(C=O)c2ccccc21	12%	.	-0.8%	-10%

Screening results (PubChem)
